From PubChem BioAssay
INS promoter inh = inhibitors of insulin promoter-driven GFP, primary screen, imaging, TRM-6 cells (human fetal islet line), eGFP reporter, cell count; 0.9% of 130,000 active; reporter expression induced with tamoxifen; inhibition, % at 2 µM; AID 1273, 2008;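 active means inhibition above the mean plus 3 SD, with well images judged a real hit on visual review, cut at about 60% in these data, passing the limit was not always enough; inconclusive means inhibition over the cutoff but images rejected on review; inactive means inhibition not above the cutoff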
HSV replic up = enhancers of HSV replication in host cells, fold increase, host cell viability. HSV replication augmentation in cells. maximum fold increase. 0.005% of 220,000 active;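 active means peak rise of 1.5-fold or more in the series; inconclusive means self-fluorescent or not available for retest; tested in PC3 cells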;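 further: first round at 10 µM; read as green reporter fluorescence; hits show the peak of a series up to 25 µM; 1 = signal of infected wells without compound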
GALR2 agonist = GALR2 receptor agonists, primary screen, cell-based. 0.48% of 140,000 active. Galanin receptor type 2 (Homo sapiens), O43603. AID 803, 2007. activation, %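 (tested at 5 µM)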. GALR2-expressing cells, agonist activation read-out;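 active means above mean plus 3 SD of all compounds, about 5% in these data, not always enough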;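 further: 0% = vehicle buffer wells and 100% = reference agonist at full effect; tested in CHO reporter cells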
Target sequence (O43603 whole entry, looked up): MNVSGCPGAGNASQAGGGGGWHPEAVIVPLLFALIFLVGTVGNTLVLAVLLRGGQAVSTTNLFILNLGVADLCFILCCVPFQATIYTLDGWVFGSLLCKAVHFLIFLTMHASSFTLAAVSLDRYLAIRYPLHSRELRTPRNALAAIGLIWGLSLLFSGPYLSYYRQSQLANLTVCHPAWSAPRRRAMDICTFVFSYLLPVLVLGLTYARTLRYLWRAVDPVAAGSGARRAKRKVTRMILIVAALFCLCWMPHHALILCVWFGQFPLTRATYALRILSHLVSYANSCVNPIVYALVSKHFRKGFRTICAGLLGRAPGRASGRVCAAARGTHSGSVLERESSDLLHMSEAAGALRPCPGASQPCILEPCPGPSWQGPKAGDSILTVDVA
RGS16-Gao = modulators of RGS16 binding to Galphao, primary screen, biochemical, human proteins, multiplexed bead flow cytometry; 0.38% of 220,000 active; AID 1441, 2008; binding response (% of control), % at 10 µM; Regulator of G-protein signaling 16 (Homo sapiens) + Guanine nucleotide-binding protein …; bead-based flow cytometry RGS16-Galphao binding, fluorescence; actives lie on both sides;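 active means below 25% or above 175%, edge rows of some plates excepted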;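 further: Galphao activated by GDP with aluminum fluoride before binding; 100% = wells without compound and 0% = beads without RGS; some results beyond the cut were filed as inactive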
Target sequence (O15492 whole entry, looked up): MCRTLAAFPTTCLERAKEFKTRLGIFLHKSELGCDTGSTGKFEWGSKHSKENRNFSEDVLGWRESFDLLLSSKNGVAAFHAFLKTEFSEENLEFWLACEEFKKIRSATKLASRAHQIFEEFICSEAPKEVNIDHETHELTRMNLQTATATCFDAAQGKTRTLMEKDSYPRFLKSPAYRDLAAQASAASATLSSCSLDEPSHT
Target sequence (P09471 whole entry, looked up): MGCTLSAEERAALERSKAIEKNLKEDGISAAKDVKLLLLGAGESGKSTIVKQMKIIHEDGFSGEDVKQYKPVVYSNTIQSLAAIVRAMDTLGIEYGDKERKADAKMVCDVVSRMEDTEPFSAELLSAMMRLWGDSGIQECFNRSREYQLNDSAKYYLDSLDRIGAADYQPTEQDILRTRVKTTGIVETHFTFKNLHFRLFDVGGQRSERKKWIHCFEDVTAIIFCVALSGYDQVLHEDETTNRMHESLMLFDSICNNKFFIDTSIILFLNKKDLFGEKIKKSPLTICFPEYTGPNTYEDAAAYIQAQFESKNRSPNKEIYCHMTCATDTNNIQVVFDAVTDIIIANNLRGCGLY
PKD1 inh = inhibitors of human PKD1 kinase, biochemical, fluorescence polarization | PKD1 kinase fluorescence polarization assay | inhibition, %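 (about 10 µM by stock and volumes)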 | 0.056% of 200,000 active | AID 797, 2007;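 active means inhibition of 50% or more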;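 further: controls were vehicle for no effect and a reference inhibitor for full effect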
INS promoter inh cell count = recorded beside INS promoter inh, whose call it bears; normalized cell count, %; measured here: cell count, toxicity; reference of the scale not given here;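 cells exposed to compound for 48 h; stained nuclei by imaging scaled within each plate; lower means fewer cells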
HSV replic up primary fold = further read-out of HSV replic up, marked with its call; fold increase; compound at 10 µM; measured here: primary screen fold increase 10 uM; tested in PC3 cells;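 GFP signal in the first replicate; 1 = infected wells without compound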
The depositor's hits bear a star; i = inactive; ? = inconclusive; . = no result given.

structure | INS promoter inh | INS promoter inh cell count | HSV replic up | HSV replic up primary fold | GALR2 agonist | RGS16-Gao | PKD1 inh
CN(C(=O)COC(=O)c1c[nH]c(=O)[nH]c1=O)C1CCCCC1 | 35 | 57 | i | 0.99 | -0.1 | 103 | -6
COc1cccc(OC)c1C(=O)Nn1c(C2CCC2)nc2ccccc2c1=O | . | . | i | 0.91 | -2.5 | 111 | -6
O=C(/C=C/c1cccc(Cl)c1)c1nc2ccccc2[nH]1 | . | . | i | 0.87 | -0.7 | 89 | -2
COc1ccc(CC2CCOC2=O)cc1 (stereo not given) | . | . | i | 0.86 | 0.0 | -31* | -8
Cc1cc(CN(C)C)c(O)c(C2(C)CCCCC2)c1 | 3 | 77 | i | 0.97 | 1.0 | 105 | -6
C=CCN=C1SC(C)(C)C(=O)N1S(=O)(=O)c1ccc(C)cc1 | -10 | 89 | i | 1.1 | . | 64 | 7
Cc1nnc(NC(=O)CC(CN(C)S(=O)(=O)c2ccccc2)c2ccccc2)s1 (stereo not given) | . | . | i | 0.82 | -2.9 | 98 | -5
O=C(NCc1cccs1)C1CCC(=O)N1C1CCCCC1 (stereo not given) | -62 | 117 | i | 1.2 | -0.8 | 102 | -3
COc1cc(C(=O)OCc2ccc([N+](=O)[O-])cc2)cc(OC)c1OC | . | . | i | 1 | . | 102 | 4
COc1ccc(N2CCN(C(=O)CSc3nnc(-c4cccnc4)n3-c3ccccc3)CC2)cc1 | . | . | i | 1 | 1.0 | 113 | -9
CCCCCCSC1=C(C#N)C(c2ccccc2)CC(=O)N1 (stereo not given) | . | . | i | 0.88 | -1.9 | 100 | -1
CCc1ccc(CN(C)C(=O)CCc2nnc(CCc3cccc(OC)c3)o2)nc1 | 10 | 97 | i | 0.96 | . | 112 | -2

Exported with values under each structure: part of the list above
Results follow in this order: INS promoter inh, INS promoter inh cell count, HSV replic up, HSV replic up primary fold, GALR2 agonist, RGS16-Gao, PKD1 inh
CN(C(=O)COC(=O)c1c[nH]c(=O)[nH]c1=O)C1CCCCC1
    35, 57, i, 0.99, -0.1, 103, -6
COc1cccc(OC)c1C(=O)Nn1c(C2CCC2)nc2ccccc2c1=O
    ., ., i, 0.91, -2.5, 111, -6

In the list so far, two contain an NH in an aromatic ring.
structure | INS promoter inh | INS promoter inh cell count | HSV replic up | HSV replic up primary fold | GALR2 agonist | RGS16-Gao | PKD1 inh
CN(C(=O)COC(=O)c1c[nH]c(=O)[nH]c1=O)C1CCCCC1 | 35 | 57 | i | 0.99 | -0.1 | 103 | -6
O=C(/C=C/c1cccc(Cl)c1)c1nc2ccccc2[nH]1 | . | . | i | 0.87 | -0.7 | 89 | -2

Next section.
structure | INS promoter inh | INS promoter inh cell count | HSV replic up | HSV replic up primary fold | GALR2 agonist | RGS16-Gao | PKD1 inh
Cc1cccc(N2C(=O)C3C4C=CC(C4)C3C2=O)c1 (stereo not given) | 14 | 110 | i | 1.1 | -1.3 | 104 | -10
Cc1ccc(NC(=O)CSC2=C(C#N)C(c3ccco3)CC(=O)N2)cc1 (stereo not given) | 0 | 125 | i | 1 | -1.6 | 96 | -5
CC(C)CNC(=O)N[C@@H](CC(C)C)C(=O)O | . | . | i | 1.1 | . | 101 | .
CC(=O)Nc1sc2c(c1CN1CCN(c3ccc(F)cc3)CC1)CCCC2 | -30 | 120 | i | 0.86 | -0.8 | 105 | -4
CCOC(=O)C1(Cc2cccc(OC)c2)CCCN(Cc2c(C)nn(C(C)C)c2C)C1 (stereo not given) | . | . | i | 0.81 | . | 97 | .
CCOC(=O)C1CCN(c2nc3ccccc3nc2C(C#N)C(=O)OC(C)C)CC1 (stereo not given) | -4 | 89 | ? | . | -0.1 | 105 | -2
COc1cc(-c2nnc(SCC(=O)N(C)C3CCS(=O)(=O)C3)o2)cc(OC)c1OC (stereo not given) | 42 | 121 | i | 0.91 | . | 104 | -4
COc1cc(C2C(C#N)=C(C)NC3=C2C(=O)CC(C)(C)C3)ccc1OCCO (stereo not given) | -61 | 105 | i | 0.91 | -2.3 | 102 | 0
COc1ncnc2c1NC(=O)CS2 | 41 | 114 | i | 0.96 | -2.3 | 86 | -4
O=C(NC1CCS(=O)(=O)C1)c1cccc(S(=O)(=O)N2CCCC2)c1 (stereo not given) | 21 | 111 | i | 0.91 | . | 102 | 1
COc1ccc(CCNC(=O)c2ccco2)cc1OC | 33 | 91 | i | 0.97 | . | 100 | 2
CCN(CC)c1ccc(/C=C(/C#N)C(=O)NCc2ccccc2)o1 | -169 | 141 | ? | . | 1.4 | 67 | -19
O=C1CC2(CCCC2)CC(=O)N1c1ccccc1 | -23 | 124 | . | . | . | 104 | -2
CCn1c(/C=C/c2ccccc2)nc2ccccc21 | . | . | i | 0.92 | -2.8 | 92 | 9
CCC(C)NC(=O)N1c2ccccc2Sc2ccccc21 (stereo not given) | . | . | i | 1 | . | 94 | .
COc1ccc2[nH]c(=S)cc(C)c2c1 | . | . | i | 1.1 | . | 99 | .
COc1ccc(NC(=O)CC2C(=O)N(c3ccc(F)cc3)C(=S)N2NC(=O)c2ccccc2)cc1 (stereo not given) | . | . | i | 0.8 | -1.1 | 99 | 3
Cc1cc(N)ccc1S(C)(=O)=O | 70 | 116 | i | 1 | -2.5 | 62 | -6
COC(=O)C(Cc1ccccc1)N1CCS(=O)(=O)CC1 (stereo not given) | 26 | 56 | i | 1 | . | 97 | 9
COc1cccc(C(=O)Nc2ccccc2N2CCCC2)c1 | 23 | 104 | i | 0.83 | -1.5 | 101 | 1
O=C(CCC(=O)N(CC(=O)NC1CCCC1)C1CCCC1)Nc1ccccn1 | 9 | 105 | i | 0.99 | -0.2 | 106 | 1
CCCC(c1nnnn1CC1CCCO1)N1CCN(c2ccccc2)CC1 (stereo not given) | . | . | i | 0.98 | . | 97 | -6
Cc1ccccc1-n1nc2c(c1NC(=O)c1ccc(Br)o1)CSC2 | -64 | 121 | i | 1.1 | -0.7 | 102 | 27
COc1ccc(-c2c(C)oc3c(CN4CCOCC4)c(O)ccc3c2=O)cc1 | . | . | i | 0.99 | . | 102 | .
C(=N\n1cnnc1)/c1cn(Cc2ccccc2)c2ccccc12 | -94 | 128 | i | 0.76 | -1.6 | 98 | -8
CC1CN(S(=O)(=O)Cc2ccccc2)CC(C)O1 (stereo not given) | . | . | i | 1 | -0.6 | 101 | 10
O=C(OCC(=O)N1CCc2ccccc21)c1cccc(S(=O)(=O)N2CCCc3ccccc32)c1 | -8 | 106 | i | 0.9 | -1.6 | 104 | -4
COc1ccc(CN(CC2CCC(C(=O)O)CC2)C(=S)Nc2ccccc2OC)cc1 (stereo not given) | . | . | i | 1.1 | . | 93 | -5
COC(=O)C1=C(C)NC(C)=C(C(=O)OC)C1c1ccc(NC(C)=O)cc1 | 45 | 116 | i | 0.93 | -0.7 | 103 | -14
Cc1c(Cl)cccc1NC(=S)N1CCN(Cc2ccc3c(c2)OCO3)CC1 | -9 | 135 | i | 0.9 | -2.4 | 99 | -3
COc1ccc(S(=O)(=O)N(C)C)cc1NC(=O)CSc1nc(N)cc(N)n1 | . | . | i | 0.88 | . | 99 | .
Cc1ccc(C)c(Cn2cnc3c(nnn3-c3ccc(F)cc3)c2=O)c1 | . | . | i | 0.9 | -0.3 | 100 | -10
CC1(C)CC(=O)c2sc(NC(=O)c3cccs3)nc2C1 | 48 | 129 | i | 0.97 | -0.8 | 109 | -8
Cc1cc(C(=O)CSc2nc3ccc(Cl)cc3[nH]2)c(C)n1CC1CCCO1 (stereo not given) | 9 | 81 | i | 0.83 | -1.8 | 49 | 14
CCCC(=O)Nc1cnc(NC(=O)c2cccc(F)c2)cc1C | . | . | i | 1 | -1.8 | 99 | -9
Cn1c(=O)c2[nH]c(N/N=C(/C#N)C(N)=O)nc2n(C)c1=O | . | . | i | 1.1 | . | 104 | .
Cc1ccc(N2C(=O)SC(N(CC(=O)O)c3cccc(C)c3)C2=O)cc1 (stereo not given) | . | . | i | 0.69 | -4.0 | 99 | 8
Cc1ccccc1C(=O)NNC(=O)CSc1nnc(C)n1-c1ccccc1 | -10 | 127 | i | 1.1 | -0.2 | 103 | 5
CCC(=O)/C(=C(/O)c1ccccc1)c1nc2ccccc2[nH]1 | 0 | 134 | i | 0.87 | . | 107 | 3
COCCn1nnnc1C(c1ccccc1OC)N1CCc2ccccc2C1 (stereo not given) | -73 | 134 | i | 1.2 | -2.2 | . | -8
O=C(Nc1ccc(Cl)cc1)/C(=C1\CCCN1)[N+](=O)[O-] | . | . | i | 1.1 | . | 98 | .
O=C(O)C12CC3CC(C1)CC(n1ncc(NCc4ccccc4)c(Cl)c1=O)(C3)C2 | 38 | 86 | i | 0.98 | . | 101 | -9
CCc1nnc(NC(=O)CCC(=O)NCc2ccccc2OC)s1 | 3 | 137 | i | 0.8 | -1.3 | 101 | 0
Cc1nnc(SCSc2nnc(C)s2)s1 | . | . | i | 0.86 | -1.7 | 95 | -14
O=C(c1ccc(C(F)(F)F)cc1)N1CCC(=O)N(C(COCc2ccc(Cl)cc2)Cc2ccccc2)CC1 (stereo not given) | -20 | 98 | i | 0.9 | -0.6 | 94 | -8
O=C(/C=C/c1cn(-c2ccccc2)nc1-c1cccnc1)N1CCCCC1 | 25 | 43 | i | 0.85 | . | 100 | 7
N/C(Cc1ccc([N+](=O)[O-])cc1)=N\OC(=O)c1ccc(Br)o1 | 71* | 65* | i | 1 | -1.4 | 101 | -2
CCOC(=O)c1oc2ccc3c(c2c1C)C(=O)CC1(CCN(C(=O)OCC)CC1)O3 | . | . | i | 0.99 | 1.1 | 105 | 0

Record cards, as listed above. Screens in order: INS promoter inh | INS promoter inh cell count | HSV replic up | HSV replic up primary fold | GALR2 agonist | RGS16-Gao | PKD1 inh
COc1cc(-c2nnc(SCC(=O)N(C)C3CCS(=O)(=O)C3)o2)cc(OC)c1OC (stereo not given) is entered as 42 | 121 | i | 0.91 | . | 104 | -4
O=C(NC1CCS(=O)(=O)C1)c1cccc(S(=O)(=O)N2CCCC2)c1 (stereo not given) is entered as 21 | 111 | i | 0.91 | . | 102 | 1

(next part)
structure | INS promoter inh | INS promoter inh cell count | HSV replic up | HSV replic up primary fold | GALR2 agonist | RGS16-Gao | PKD1 inh
C=CCN1CN(Cc2ccco2)CNC1=S | -40 | 85 | i | 0.9 | -0.6 | 104 | -10
CCOC(=O)c1c(-c2ccc(C)cc2)csc1NC(=O)C1CC=CCC1C(=O)O (stereo not given) | -21 | 65 | . | . | -1.0 | 103 | 0
CCN1C(=O)C(O)(CC(=O)c2ccc3c(c2)OCCO3)c2ccccc21 (stereo not given) | . | . | i | 0.82 | -4.9 | 104 | -2
N#CC1=C(N)OC2=C(C(=O)CCC2)C1c1cccs1 (stereo not given) | -36 | 80 | i | 1.1 | . | 103 | 5
CCCC(=O)c1ccc(N2CCN(C(=O)c3ccccc3Br)CC2)c(F)c1 | 42 | 109 | i | 1.1 | -0.8 | 100 | -7
CCCC(=O)NC(Nc1cccc(C(F)(F)F)c1)C(Cl)(Cl)Cl (stereo not given) | -40 | 89 | i | 0.96 | -2.0 | 102 | 4
c1ccc(-n2ncc3c2ncn2nnnc32)cc1 | . | . | i | 0.99 | -0.4 | 97 | -3
CC(=O)NNC(=O)C(O)(c1ccccc1)c1ccccc1 | -35 | 110 | i | 1 | 0.0 | 102 | -5
COc1cccc(NC(=O)C2CCCN2C(=O)Nc2cccc(F)c2)c1 (stereo not given) | 0 | 33 | i | 1.1 | -4.0 | 104 | -6
Cc1cc(C)nc(NC(=O)c2ccc(Cl)cc2Cl)n1 | -100 | 131 | i | 1 | . | 101 | 0
COc1ccccc1N1CCN(c2cc(C)nc3nc(C)nn23)CC1 | . | . | i | 1.1 | -0.4 | 110 | -12
